# High-throughput results (PubChem)
# VDR inhibitor – inhibitors of human vitamin D receptor; actives 0.93% (n = 400,000); P11473; VDR-SRC2-3 peptide fluorescence polarization, 2 h; AID 504847; Potency, µM, inactives show max response, negative = inhibition, most hits filed as inhibitors; active = well fitted inhibition curve with a large enough effect; inconclusive = small, poorly fitted or top-dose-only effect, or another doubt; inactive = no such curve, though single readings can be large or run the other way; also: series mostly up to about 120 µM
# Target sequence (P11473 whole entry, looked up): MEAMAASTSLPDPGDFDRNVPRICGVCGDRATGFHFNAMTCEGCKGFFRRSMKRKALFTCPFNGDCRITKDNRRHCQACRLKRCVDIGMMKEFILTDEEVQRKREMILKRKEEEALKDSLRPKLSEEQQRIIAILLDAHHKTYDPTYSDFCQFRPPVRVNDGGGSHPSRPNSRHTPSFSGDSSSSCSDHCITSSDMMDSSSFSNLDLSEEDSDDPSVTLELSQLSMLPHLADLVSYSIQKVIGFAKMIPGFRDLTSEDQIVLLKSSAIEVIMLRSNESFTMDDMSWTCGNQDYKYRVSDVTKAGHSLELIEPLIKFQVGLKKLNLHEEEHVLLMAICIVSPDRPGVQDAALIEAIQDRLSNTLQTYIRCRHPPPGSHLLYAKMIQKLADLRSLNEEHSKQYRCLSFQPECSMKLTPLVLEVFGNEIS
#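 The screen uses fluorescence polarization to detect compounds that interfere with recruitment of the SRC2-3 coactivator peptide to VDR; plates are read after 2 h at room temperature.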
# * hit, by the source's call; ? = inconclusive; [ ] = dose if it differs, or a comment. % is scaled to controls: 0 for no effect and ±100 for the full control effect; potency is read from the fitted curve at half-maximal effect. Only part of the results is shown; rates above refer to the full screens.
structure | VDR inhibitor
O=c1cc(-c2ccc(O)c(O)c2)oc2cc(O)c(C3OC(CO)C(O)C(O)C3O)c(O)c12 (centres undefined) | -20%
CCCCN(C(=O)CSc1nnc(-c2ccccc2OC)n1C)c1c(N)n(Cc2ccccc2)c(=O)[nH]c1=O | -5%
CCOc1ccc(NC(=O)CN2CCN(CC(=O)c3ccc(OC)c(OC)c3)CC2)cc1 | -29%
COc1ccc(-c2sc(NC(=O)c3ccc(C)cc3)nc2-c2ccc([N+](=O)[O-])cc2)cc1 | 8%
CN1C(=O)c2ccccc2NC(=O)[C@]12O[C@@H]2c1cccc(O)c1 | -5%
COc1cc(/C=N/n2cnnc2)ccc1OCCSc1ccc(C)cc1 | -4%
Cc1ccccc1C(=O)N1CCC(C(=O)N(C)CCOc2ccccc2)CC1 | -16%
O=c1c(-c2cccs2)nc2cnc(N3CCNCC3)nc2n1Cc1cccs1 | 104%[activator]
CCOc1ccc(C(CC(=O)O)NC(=O)COc2ccccc2)cc1OC (centres undefined) | -3%
Cc1occc1-c1nnc(SCC(N)=O)n1Cc1ccccc1 | 0%
CCCCCCNC(=O)CCc1nc2cccnc2n1Cc1ccc(OC)cc1 | -19%
CCN(CC)CCCNC(=O)c1cc(Sc2nnc(C)s2)nc2ccccc12 | 2%
C=CCCC(=O)N1C[C@H]2CON(C)[C@H]2C[C@H]1c1cccc(Br)c1 | 9%
Cc1ccc(NC(=S)NCc2cccs2)cc1 | -2%
COC(=O)c1cccc(NC(=S)N2CCCCC2)c1 | 24%
CCO[C@@H]1c2c(ccc3ccc(=O)oc23)OC(C)(C)[C@@H]1O | 21%
CCN(CC)CCCN(C(=O)c1cccs1)c1nc(-c2ccc(OC)cc2)cs1 | 8%
COc1ccc(NC(=O)CSCC(=O)N=c2sccn2C)cc1 | 25%
CCCC(=O)Nc1cc(=O)[nH]c2ncnn12 | 8%
O=C(/C=C/c1ccccc1Cl)NCCc1ccccc1 | 4%
CCOC(=O)C1CCN(C(=O)c2ccccc2NS(=O)(=O)c2ccc(F)c(F)c2)CC1 | 1%
O=S1(=O)C2CC3OC2(CC3c2ccc(F)cc2)CN1Cc1ccc(Cl)cc1 (centres undefined) | 6%
CCN1CCC(N(Cc2ccc(F)cc2)C(=O)Nc2cccc(C(F)(F)F)c2)CC1 | 6%
Nc1cccc2c1C(=O)N(CCOc1ccccc1F)C2=O | -3%
CCCCOc1cccc(C(=O)Nc2ccc3oc(-c4cccnc4)nc3c2)c1 | -11%
O=C(COc1ccccc1)Nc1ccc2c(c1)Cc1cc(NC(=O)COc3ccccc3)ccc1-2 | -8%
O=C(NCc1ccccc1)C1CCN(S(=O)(=O)c2cc([N+](=O)[O-])ccc2Cl)CC1 | 2%
Oc1ccccc1C=NC1=NN(c2cccc(C(F)(F)F)c2)CC1 | -1%
O=C(COC(=O)c1ccc(Cl)c(S(=O)(=O)N2CCN(c3ccc(F)cc3)CC2)c1)Nc1cccc(Cl)c1 | -7%
COC(=O)CSc1nc2ccccc2o1 | -1%

# Some of these compounds in order of the VDR inhibitor value, highest first.
structure | VDR inhibitor
CCO[C@@H]1c2c(ccc3ccc(=O)oc23)OC(C)(C)[C@@H]1O | 21%
CCCCOc1cccc(C(=O)Nc2ccc3oc(-c4cccnc4)nc3c2)c1 | -11%
CCOc1ccc(NC(=O)CN2CCN(CC(=O)c3ccc(OC)c(OC)c3)CC2)cc1 | -29%

# Next entries follow.
structure | VDR inhibitor
CCOC(=O)c1c(NC(=O)CN2C(=O)NC3(CCCCC3)C2=O)sc(C)c1-c1ccc(C)cc1 | -1%
CCOc1ccc(CN2C(=O)c3ccccc3Sc3ccc(C(=O)NCc4ccc(C)cc4)cc32)cc1 | -13%
Cc1c(NC(=O)Cn2[nH]c(=O)c3ccccc3c2=O)c(=O)n(-c2ccccc2)n1C | -16%
O=C(Nc1ccc2oc(-c3ccc(F)cc3)nc2c1)c1ccccc1F | 5%
O=C(CCSc1ccccc1)Nc1ccccc1C(=O)N1CCCC1 | -10%
O=C(COC(=O)Cn1cnc2ccccc21)Nc1cc2c(cc1Cl)C(=O)c1ccccc1C2=O | -7%
COc1ccc(CCn2c(-c3ccco3)nc3nc4ccccc4nc32)cc1 | 3%
COc1ccc2c(c1)c(=O)c(C(=O)c1ccc(C)cc1)cn2CC(=O)Nc1ccc(F)cc1 | -4%
Cc1nnc(SCC(=O)Nc2ccc(S(N)(=O)=O)cc2)n(N)c1=O | 2%
Cc1nc2scc(C)n2c(=O)c1S(=O)(=O)NCCc1ccccc1 | ?
Cc1ccc(S(=O)(=O)Nc2ccc(=O)n(Cc3ccc(Cl)c(Cl)c3)c2)cc1 | -2%
COC(=O)c1ccc2c(=O)n(CCCCCC(=O)N3CCN(c4ccccc4)CC3)c(=O)[nH]c2c1 | ?
COc1ccc(Cl)cc1NC(=O)c1ccc2c(c1)CCN2S(C)(=O)=O | 4%
C=CCNC(=O)c1ccc(CN2CCC(Cc3ccccc3)CC2)cc1 | -8%
N#Cc1ccc(NC(=O)Nc2cccc(C#N)c2)cc1 | -10%
Cc1[nH][nH]c(=O)c1C(c1ccc(-c2ccccc2C(=O)O)o1)c1c(C)[nH][nH]c1=O | -9%
O=C(Nc1ccn(CC(=O)N2CCN(c3ccccn3)CC2)c(=O)n1)OCc1ccccc1 | 4%
CC1CCC2(CC1)NC(=O)N(NC(=O)C1CCN(C(=O)c3ccc(Cl)cc3)CC1)C2=O (centres undefined) | -14%
COC(=O)Cn1c(=N)n(CCN2CCCCC2)c2ccccc21 | -16%
C/C=C1\NC(=O)[C@H](C)NC(=O)[C@@H](NC(=O)[C@@H](Cc2ccc(O)cc2)NC(=O)[C@@H](NC(=O)/C(C)=C/C)C(C)C)[C@@H](C)OC(=O)[C@H](CCCCc2ccc(O)cc2)NC(=O)[C@@H](CCC(=O)O)NC1=O | -7%
COc1cccc(CNC(=O)Cc2csc3nc(-c4ccccc4)cn23)c1 | 11%
NS(=O)(=O)c1ccc(CCNS(=O)(=O)c2cccc3cccnc23)cc1 | 5%
CCOc1ccc(NC(=O)/C(=C\c2ccc(OC(C)=O)c(OC)c2)NC(C)=O)cc1 | 3%
Cc1cc(Br)ccc1NC(=O)C(Cc1ccccc1)NS(=O)(=O)c1ccc(Br)s1 (centres undefined) | 0%
Cc1ccc(C(CC(=O)O)NC(=O)c2ccc(S(=O)(=O)N3CC(C)OC(C)C3)cc2)cc1 (centres undefined) | -13%
C=C[C@@H](C)[C@](C)(O)c1ccccc1 | 0%
O=C(CCOc1ccccc1)Nc1ccc(S(=O)(=O)N2CCCC2)cc1 | -8%
Nc1nc(NCC(=O)O)nc(NCc2ccccc2)c1[N+](=O)[O-] | -8%
O=S(=O)(Nc1ccc(-c2ccc3nncn3n2)cc1)c1cccs1 | -8%
COCC1CCN(C(=O)c2cc(COc3cc(C)c(Cl)c(C)c3)on2)C1 (centres undefined) | -17%

# Two records drawn at random from those above:
structure | VDR inhibitor
N#Cc1ccc(NC(=O)Nc2cccc(C#N)c2)cc1 | -10%
Cc1[nH][nH]c(=O)c1C(c1ccc(-c2ccccc2C(=O)O)o1)c1c(C)[nH][nH]c1=O | -9%

# The list continues:
structure | VDR inhibitor
COc1ccc(Cl)cc1NC(=O)Cn1c(=O)c2ccccc2n2nncc12 | -16%
Cc1oc(-c2ccccc2F)nc1Cn1c(SCc2cccc(C(F)(F)F)c2)nc2ccncc21 | 5%
COc1ccc2[nH]cc(CCNS(=O)(=O)c3ccc(NC(C)=O)cc3)c2c1 | -8%
CCN1CCN(C(=O)/C=C/c2ccccc2[N+](=O)[O-])CC1 | -8%
Cc1ccccc1N(CC(=O)NC1CCCC1)C(=O)c1oc(C(C)(C)C)cc1C | -11%
COc1ccc(-n2ncc(C(=O)N3CCN(C(=O)c4ccco4)CC3)c2C2CCN(C(=O)OC(C)(C)C)CC2)cc1 | 8%
O=C(Nc1nc2n(n1)C(c1ccc(F)cc1)CC(c1ccccc1)N2)c1ccco1 (centres undefined) | -16%
CC(CCc1ccco1)NC(=O)CCc1nnc2ccc(NCc3ccccc3Cl)nn12 (centres undefined) | -13%
CCc1ccc(C2CC(=O)N(c3ccc(F)cc3)C3=C2C(=O)OC3)cc1 (centres undefined) | 23%
Cc1ccc(OCCCC(=O)Nc2ccccc2C(F)(F)F)cc1 | 6%
O=C(CCN=C1NS(=O)(=O)c2ccccc21)OCC(=O)c1ccccc1Cl | -16%
Cc1cc(C)cc(NC(=O)CSc2nc(N)c(NC(=O)c3ccc(Br)o3)c(=O)[nH]2)c1 | -6%
Cc1ccc(NC(=O)c2cnn(C)c2)cc1[N+](=O)[O-] | -5%
COc1ccc(NC(=S)N(Cc2cccnc2)Cc2cc3cc(OC)c(OC)cc3[nH]c2=O)cc1 | 8%
CC(=O)N1CCc2cc(S(=O)(=O)NC(Cc3ccccc3)C(=O)Nc3cccc(C)c3)ccc21 (centres undefined) | 12%
CC(=O)Nc1nnc(SCC(=O)NC(C)(C)C)s1 | 30%
CCCCCC(=O)/C=C/[C@@H]1[C@@H](C/C=C\CCCC(=O)O)[C@@H](O)C[C@H]1O | 0%
COC(=O)c1nc(N)sc1-c1ccc(Cl)cc1 | 12%
COc1ccc(-c2nc3cnc(N4CCOCC4)nc3n(CCc3ccccc3)c2=O)cc1 | ?
O=C(CNC(=O)c1ccc(Br)o1)OCC(=O)c1cccc([N+](=O)[O-])c1 | -2%
Cc1cc(OCC(=O)Nc2ccc(S(=O)(=O)N3CCN(C)CC3)cc2)ccc1Cl | 11%
CC1CCN(C(=O)c2ccc(CS(=O)(=O)Cc3ccccc3)cc2)CC1 | 5%
CN1CCN(CC(O)Cn2c3ccccc3c3ccccc32)CC1 (centres undefined) | 8%
CC(C)C1N=C2c3ccccc3N=C(SCC(=O)NCCc3ccc(S(N)(=O)=O)cc3)N2C1=O (centres undefined) | -7%
COc1cc(-c2nnc(SCC(=O)NC3CCCC3)n2C)cc(OC)c1O | 2%
Cc1ccc(C(=O)CCC(=O)Nc2ccccc2F)cc1 | 2%
O=c1nc(N2CCCCC2)nc(Nc2ccccc2)[nH]1 | -21%
N#CC1=C(SCC(=O)Nc2ccc(C(=O)O)cc2)NC(=O)CC1c1ccco1 (centres undefined) | 5%
COc1ccc(N2CC(O)(c3ccc(C)cc3)[N+]3=C2CCCC3)cc1 (centres undefined) | -10%
O=C(O)c1cc2nc(-c3cccs3)cc(C(F)(F)F)n2n1 | -1%

# A different layout for part of the listing above.
VDR inhibitor,SMILES
-2%,O=C(CNC(=O)c1ccc(Br)o1)OCC(=O)c1cccc([N+](=O)[O-])c1
11%,Cc1cc(OCC(=O)Nc2ccc(S(=O)(=O)N3CCN(C)CC3)cc2)ccc1Cl

# Other records.
Compound | VDR inhibitor
N#CCCN(C(=O)COC(=O)C1=NNC(=O)CC1)c1ccccc1 | 6%
Nc1nnc(SCC(=O)Nc2cc(S(=O)(=O)N3CCOCC3)ccc2Cl)s1 | -2%
CCN(CC)C1CCN(C(=O)c2ccc3nc(Cc4ccc(OC)cc4)oc3c2)C1 (centres undefined) | -10%
CC(NC(=O)c1ccc(F)cc1)C(=O)NC1=NCCS1 (centres undefined) | 12%
CC(C)C(NC(=O)C12CC3CC(CC(C3)C1)C2)C(=O)O (centres undefined) | 1%
CCc1nn(Cc2c(C)cc(C)cc2C)c(=O)c2cc3cc(C)ccc3n12 | 7%
Cc1nnc(NS(=O)(=O)c2ccc(N=Nc3ccc(N)nc3N)cc2)s1 | 2%
CCn1c(=O)c2sccc2n2c(CCC(=O)Nc3cc(C)cc(C)c3)nnc12 | -10%
Cc1cc(Nc2ccc(C)c(Cl)c2)nc(N2CCOCC2)n1 | -10%
O=C(Nc1cccnc1)c1ccc(COc2cc(Cl)ccc2Cl)o1 | -19%
CCOC(=O)C1=C(CS(=O)(=O)c2ccc(OC)c(Cl)c2)NC(=O)NC1c1cccc(OC)c1 (centres undefined) | ?
Cc1ccccc1NC(=O)Cc1nc(-c2ccc3ccccc3c2)cs1 | ?
Oc1ccc(/C=N/N(Cc2ccccc2)c2ccccc2)c(O)c1O | 2%
O=C(NC12CC3CC(CC(C3)C1)C2)c1ccccc1O | -15%
O=C(C[n+]1ccc(C(=O)N/N=C/c2ccc(Br)cc2)cc1)c1ccccc1 | -3%
Cc1ccc(NC(=S)N2CCc3[nH]c4ccccc4c3C2)cc1 | 0%
CNc1nc(NC)nc(NNC(=O)c2ccccc2)n1 | 3%
Cc1ccc(S(=O)(=O)Nc2ccc(F)c(S(=O)(=O)N3CCOCC3)c2)cc1 | -2%
CCCCNC(=O)c1cn(CC(C)C)c(=O)c2c1c1ccccc1n2C | -9%
COc1ccc(NC(=O)CCOc2ccc(C)cc2)cc1S(=O)(=O)N1CCCCC1 | 42%[activator]
O=C1c2ccccc2C(=O)N1CCCc1cn(C[C@H]2CC[C@@H]([C@@H]3CC[C@H](Cn4cc(CCCN5C(=O)c6ccccc6C5=O)nn4)O3)O2)nn1 | 12%
COc1ccc(C(C)C)cc1S(=O)(=O)NCC1CCCO1 (centres undefined) | 3%
COc1ccc(C(=O)NC2CCN(S(=O)(=O)Cc3ccccc3)CC2)c(OC)c1 | 9%
COCCN(C(=O)COC(=O)CCCOc1ccccc1)c1c(N)n(Cc2ccccc2)c(=O)[nH]c1=O | -15%
CCCCn1c(N)c(N(CCOC)C(=O)COC(=O)COc2cc(C)ccc2Cl)c(=O)[nH]c1=O | -10%
Cc1cc(C)n(-c2ccc(F)cc2)c(=O)c1C#N | 2%
COc1ccc(-c2c(-c3ccc(OC)nc3)c3ccccc3n2C)cc1 | -5%
CCN1CCN(C(=O)Cn2ncc3c4ccccc4n(Cc4ccccc4)c3c2=O)CC1 | 4%
CC(=O)c1cccc(NC(=O)Cn2cnc3c2c(=O)n(C)c(=O)n3C)c1 | -5%
CCOc1ccc(CCNC(=O)CN2C(=O)NC3(CCCCC3C)C2=O)cc1OCC (centres undefined) | -1%

# Reformatted with each value named: entries from further up.
> COc1ccc(-c2c(-c3ccc(OC)nc3)c3ccccc3n2C)cc1
  VDR inhibitor: -5%
> CCN1CCN(C(=O)Cn2ncc3c4ccccc4n(Cc4ccccc4)c3c2=O)CC1
  VDR inhibitor: 4%
> CC(=O)c1cccc(NC(=O)Cn2cnc3c2c(=O)n(C)c(=O)n3C)c1
  VDR inhibitor: -5%
